# Compound activity from PubChem.
# MLL AF4-AF9 inh = blocks AF4 peptide binding to human AF9; P42568; AlphaScreen, biotin-AF4 peptide binding to FLAG-AF9; inhibition, % at 10 µM; actives 0.47% (n = 350,000); AID 651704;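 active means every replicate reaching a set inhibition limit, whatever the replicate mean, cut at about 25% in these data; inconclusive means mean inhibition reaches that limit but some replicates miss it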;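 further: 0% = plate neutral control median and 100% = total signal loss; the record names both 10 and 1 µM as test concentration; the first replicate is given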
# E coli growth = inhibitors of Escherichia coli growth; OD600, 23 h; hits give low values; OD600 absorbance (concentration not given with the values); actives 0.21% (n = 330,000); AID 1053175;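 active means OD600 absorbance below the run mean of sample wells minus 3.6 SD, in any replicate, cut at about 0.56 in these data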;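 further: stock transfer was 300 nL into about 60 µL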
# Vif TR-FRET = inhibitors of Vif binding to APOBEC3G peptide, primary screen, biochemical, TR-FRET, GST-Vif 1-94, biotin-A3G peptide, dose response retest (AID 1117319); actives 0.57% (n = 260,000); inhibition, %, or IC50 in µM where a hit was titrated; TR-FRET GST-Vif / biotin-A3G peptide binding; higher % means a stronger effect; test concentration not given here; strong numbers were not always called active;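 active means above the screen mean plus three standard deviations and confirmed in dose response; inconclusive means results disagree or hit not tested in dose response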;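 further: Vif residues 1-94 fused to GST binding biotinylated APOBEC3G peptide 110-148; 0% = full assay without inhibitor and 100% = GST in place of GST-Vif; retest series ran down from 100 µM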
# FGF22 binding = shifts melting point of recombinant human FGF22; Q9HCT0; recombinant FGF22 thermal shift, SYPRO orange fluorescence; percent of sucrose octasulfate shift, DMSO zero; calls only at 9.99 µM; actives 1.5% (n = 340,000);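 active means melting point raised past a set limit in the mean and every replicate; inconclusive means no clear call; three in four hits are not shown here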
# Target sequence (Q9HCT0 whole entry, looked up): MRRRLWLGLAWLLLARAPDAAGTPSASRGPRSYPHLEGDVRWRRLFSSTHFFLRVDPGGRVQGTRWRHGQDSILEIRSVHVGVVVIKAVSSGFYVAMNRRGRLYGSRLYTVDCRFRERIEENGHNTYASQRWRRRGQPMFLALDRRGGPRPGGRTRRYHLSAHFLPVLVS
# Ecoli rRNA inh = inhibits bacterial ribosomal RNA function over humanized ribosomes | E. coli WT GFP vs humanized-ribosome RFP mutants, fluorescence, 24 h; hits give low values; DMSO median 0, no signal -100 | GFP signal change (wild-type ribosome), % (no concentration beside the values) | actives 1.6% (n = 350,000);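 active means significant combined selectivity score with lowered wild-type GFP, culture density cut under 30%, mutant RFP and density less affected; inactive means any of these conditions unmet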; further: one replicate is shown; some compounds called inactive have numbers as strong as hits
# HNF4A DNA FP = change in binding of human HNF4 alpha to DNA; P41235; HNF4a-FITC DNA binding, fluorescence polarization, 1 h; activity change, % at 10 µM; actives 0.3% (n = 360,000); AID 1224865; in the data active means activity change above about 30%, passing the limit was not always enough;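 further: controls were the assay level and a saturating level of protein; the project sought stronger binding though the title names inhibitors; some compounds called inactive have numbers as strong as hits; positive values seem to mean higher polarization but the record does not say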
# Target sequence (P41235 whole entry, looked up): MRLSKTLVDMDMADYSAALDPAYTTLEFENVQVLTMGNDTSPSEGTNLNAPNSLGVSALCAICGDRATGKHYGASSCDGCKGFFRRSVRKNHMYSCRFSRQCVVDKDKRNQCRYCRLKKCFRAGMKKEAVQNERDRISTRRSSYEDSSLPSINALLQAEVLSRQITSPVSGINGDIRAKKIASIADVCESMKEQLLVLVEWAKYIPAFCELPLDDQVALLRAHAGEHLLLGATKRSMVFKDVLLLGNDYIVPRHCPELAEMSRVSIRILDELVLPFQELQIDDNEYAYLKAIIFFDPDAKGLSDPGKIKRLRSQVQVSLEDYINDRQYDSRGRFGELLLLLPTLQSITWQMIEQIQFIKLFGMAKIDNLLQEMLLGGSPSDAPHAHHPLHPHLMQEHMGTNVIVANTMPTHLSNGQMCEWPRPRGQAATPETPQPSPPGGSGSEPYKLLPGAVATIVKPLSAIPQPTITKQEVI
# ALR inh = human ALR oxidase inhibition via reduced H2O2; actives 3.8% (n = 290,000); inhibition, % (test concentration not listed); purified ALR, DTT oxidation, H2O2 HRP-luminol luminescence; P55789;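 active means mean and each replicate at 75% or more; inconclusive means only one of the two met; inactive means neither met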;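 further: stock transfer was 7.5 nL into about 7.5 µL; 0% = neutral wells and 100% = wells with inactivated enzyme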
# Target sequence (P55789 whole entry, looked up): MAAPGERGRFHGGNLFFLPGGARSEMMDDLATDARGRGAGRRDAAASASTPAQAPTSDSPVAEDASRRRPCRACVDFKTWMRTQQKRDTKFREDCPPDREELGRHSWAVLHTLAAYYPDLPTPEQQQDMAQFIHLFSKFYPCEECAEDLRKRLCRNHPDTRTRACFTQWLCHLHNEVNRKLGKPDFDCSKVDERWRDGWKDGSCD
# Ecoli rRNA inh OD600 = further read-out of Ecoli rRNA inh, marked with its call; OD600 change, %; measured here: OD600 growth;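 optical density of the mix in the first replicate; 0 = DMSO median and -100 = no signal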
# Ecoli rRNA inh RFP = recorded beside Ecoli rRNA inh, whose call it bears; RFP signal change, %; measured here: RFP humanized mutant strains;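 first replicate; 0 = DMSO median and -100 = no signal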
# An asterisk follows results filed as active; i = inactive; u = inconclusive; x = no result given; & = joins results of further samples. A portion of the library; count on the stated rates, not on these rows.
SMILES,MLL AF4-AF9 inh,E coli growth,Vif TR-FRET,FGF22 binding,Ecoli rRNA inh,Ecoli rRNA inh OD600,Ecoli rRNA inh RFP,HNF4A DNA FP,ALR inh
C[C@@H]1CN([C@H](C)CO)C(=O)CCCn2cc(nn2)CO[C@@H]1CN(C)Cc1ccc(O)cc1,-1.1,x,x,i,3,6,-0.3,x,x
COc1ccccc1/C=N/N1CCN(Cc2ccccc2Cl)CC1,-3.0,x,4%,i,x,x,x,0.3,-3
CC(C)(C)OC(=O)C[C@@H]1C/C=C\C[C@H](CC(=O)N(CCO)Cc2ccccc2)C(=O)N2CCC[C@@H]2COC1=O,-3.2,x,x,i,-3,-3,15,2.1,-1
Cc1ccc(-c2onc3ccc(C4(C)OCCO4)cc23)cc1,x,0.71,13%,x,x,x,x,0.8,-3
COc1ccc(-n2nc(C(=O)O)c3ccccc3c2=O)c(OC)c1,-10,0.7,-2%,x,9,8,7.4,0.5,-1
CCOCCCN(C)C1CCN(C(=O)c2oc3ccccc3c2NC(=O)Cc2ccc(F)cc2)CC1,3.6,0.67,x,i,3,5,2.1,1.1,-1
O=C1CC2(CCN(C(=O)c3ccccc3Cl)CC2)Oc2ccccc21,-0.8,0.62,x,i,-5,-23,3.7,-0.5,1
COc1ccc(CNC(=O)C2CCN(S(=O)(=O)c3c(C)n[nH]c3C)CC2)cc1,x,0.68,-3%,x,x,x,x,-1.1,8
NNC(=S)Nc1ccc(Cl)cc1,-9.6,0.67,66%,i,-11,-7,6.5,-1.5,32
Cc1ccc(C)c(-n2c(-c3cccnc3)n[nH]c2=S)c1,-7.1,0.7,-1%,i,-5,-3,1.6,-1.9,47
COc1ccc(S(=O)(=O)N2CCC(C(=O)NCc3ccncc3)CC2)cc1Cl,-3.6,0.7,2%,i,7,0,3.0,6.1,-1
O=C(NC1CC1)c1cccc(Br)c1,x,0.71,-8%,x,x,x,x,1.3,-1
COc1ccc(NC(=O)CN(c2ccccc2)S(=O)(=O)c2ccccc2)c(OC)c1,8.7,0.68,3%,i,-24*,-8.9*,8.5*,-2.3,-2
CC1=NN(C(C#N)c2ccccc2O)C(C)(C)C1 (stereo not drawn),-0.4,0.68,-4%,i,20,11,7.5,-1.3,-1
CC(=O)N(C[C@H]1N[C@H](CO)[C@H]1c1ccc(-c2ccccc2)cc1)C(C)C,-0.5,x,x,i,2,4,-2.1,x,x
O=C(CSc1nnc(-c2ccccc2)n1Cc1ccco1)Nc1ccc2c(c1)OCCO2,x,0.68,24%,x,x,x,x,2.9,-47
CCn1c(-c2ccccc2O)n[nH]c1=S,x,0.63,2%,x,x,x,x,-0.1,92*
CN(c1ccccc1)c1cc(Br)nc(Br)c1,0.6,0.69,x,i,6,7,-2.4,2.4,4
COc1ccc(S(=O)(=O)Nc2ccc3c(c2)OCO3)cc1Cl,x,0.74,26%,x,x,x,x,-0.1,10
CC(=O)c1sc(-c2ccccc2)cc1N,x,0.61,-37%,i,-10,-6,2.8,-0.8,22

# Record cards, from the list above. Order of screens: MLL AF4-AF9 inh	E coli growth	Vif TR-FRET	FGF22 binding	Ecoli rRNA inh	Ecoli rRNA inh OD600	Ecoli rRNA inh RFP	HNF4A DNA FP	ALR inh
# `CC1=NN(C(C#N)c2ccccc2O)C(C)(C)C1` (stereo not drawn) is listed with -0.4	0.68	-4%	i	20	11	7.5	-1.3	-1
# `O=C1CC2(CCN(C(=O)c3ccccc3Cl)CC2)Oc2ccccc21` is listed with -0.8	0.62	x	i	-5	-23	3.7	-0.5	1
# `Cc1ccc(C)c(-n2c(-c3cccnc3)n[nH]c2=S)c1` is listed with -7.1	0.7	-1%	i	-5	-3	1.6	-1.9	47
# `CC(=O)c1sc(-c2ccccc2)cc1N` is listed with x	0.61	-37%	i	-10	-6	2.8	-0.8	22

# Going on with the list.
SMILES,MLL AF4-AF9 inh,E coli growth,Vif TR-FRET,FGF22 binding,Ecoli rRNA inh,Ecoli rRNA inh OD600,Ecoli rRNA inh RFP,HNF4A DNA FP,ALR inh
CCCCNc1nnc(SCC(=O)N2CCN(S(=O)(=O)c3ccc4ccccc4c3)CC2)s1,x,0.73,-4%,x,x,x,x,4.8,-24
O=C(CSc1ccsc1[N+](=O)[O-])NCCc1ccccc1,x,0.71,3%,x,x,x,x,2.9,x
COC(=O)Cc1c(C)c2cc(Cl)c(OC(=O)c3ccco3)cc2oc1=O,x,0.73,-5%,x,x,x,x,-2.3,12
Cc1ccc(S(=O)(=O)/N=C(/Nc2ccc(F)cc2F)c2ccccc2)cc1,-2.5,0.69,-6%,i,-5,-12,0.2,3.0,0
Fc1ccc(F)c(CNc2ncnc3cc(Cl)ccc23)c1,-3.2,0.67,-26%,i,-9,-6,-1.1,2.1,x
Cc1cc(NC(=O)CC(C)C)c(=O)n(Cc2ccccc2F)c1,1.7,0.71,2%,i,-8,-14,1.7,3.0,-33
CCS(=O)(=O)N1CC2(CN(Cc3ccccc3)[C@@H](CO)c3c2c2ccc(OC)cc2n3C)C1,-0.6,x,x,i,-1,-34,-1.6,x,x
CCOC(=O)c1c(NC(=O)c2ccc(S(=O)(=O)N3CCOCC3)cc2)sc2c1CCN(C)C2,14,0.69,-15%&-5%,i,-15,1,26,5.8,2
CCCCC(=O)Nc1ccc(C(=O)NNC(=O)c2ccc(C)c(Br)c2)cc1,x,0.68,x,x,x,x,x,-2.5,3
Cc1ccc(-c2ccc3c(c2)O[C@@H](CN(C)C(=O)CC2CC2)[C@H](C)CN([C@H](C)CO)S3(=O)=O)cc1,4.5,x,x,i,-15,-46,9.8,x,x
O=C(Nc1ccc2c(c1)[C@H]1C[C@H](CC(=O)N3CCc4ccccc4C3)O[C@H](CO)[C@H]1O2)NC1CCCC1,3.5,x,x,i,-10,-35,18,x,x
Cc1ccc(CCNC(=O)CCn2ccc3cc(S(=O)(=O)N4CCCC4)ccc32)cc1,-1.0,0.66,1%,i,-18,-23,-1.1,-0.7,0
COCC#Cc1ccc([C@H]2[C@@H](CO)N3CCCCN(Cc4ccncc4)C[C@H]23)cc1,3.3,x,x,i,4,7,0.1,x,x
COc1ccc(CC2(CO)CCN(Cc3cccc4nccnc34)CC2)cc1,0.8,0.67,14%,i,4,10,-2.5,0.8,-8
O=C(O)C[C@@H]1C[C@H]2c3cc(NC(=O)Nc4ccccc4F)ccc3O[C@H]2[C@H](CO)O1,0.1,x,x,i,1,0,0.1,x,x
COC(=O)C(C)N(C(=O)c1ccc(Cl)cc1)c1c(C)cccc1C (stereo not drawn),x,0.72,23%,x,-5,-8,2.3,1.0,-2
COc1ccc(C2c3ccc(O)cc3Oc3ncn(CCCO)c(=N)c32)cc1OC (stereo not drawn),-7.2,0.71,-4%,i,11,2,2.3,-122,0
CN1C(=O)c2cc(NC(=O)c3cccs3)ccc2OC[C@H]2O[C@@H](CC(=O)NCC(F)(F)F)CC[C@@H]21,-1.7,x,x,i,1,11,-0.2,x,x
COC(=O)c1cc(C(=O)OCC(=O)NC2CCS(=O)(=O)C2)cc([N+](=O)[O-])c1 (stereo not drawn),1.6,0.7,5%,i,x,x,x,-0.9,-4
Cc1nc2nc(COc3ccccc3)nn2c(C)c1Cl,x,0.71,4%,x,x,x,x,-2.2,-7
CCCCCCCCCCC[C@@H](C[C@@H]1OC(=O)[C@H]1CCCCCC)OC(=O)[C@H](CC(C)C)NC=O,-7.1,x,-5%,i,19,8,-2.5,-1.7,-17
N#CC1=C(N)C(C#N)(C#N)C(c2cccnc2)C2COCC=C12 (stereo not drawn),x,0.69,0%,x,x,x,x,-1.7,-2
Cc1cccc(N2CCN(C(=O)n3ccnc3)CC2)c1C,x,0.71,2%,x,x,x,x,3.5,11
O=C(C[C@H]1C[C@@H]2c3cc(NS(=O)(=O)c4ccc(F)cc4)ccc3O[C@@H]2[C@H](CO)O1)NCc1cccc(F)c1,1.5,x,x,i,1,-3,2.6,x,x
NC(=O)C1CC(=O)N(c2ccc(OCc3ccc(Cl)cc3Cl)cc2)C1 (stereo not drawn),0.9,0.73,5%,i,9,3,-1.2,-1.0,x
COc1ccc(OCCNC(=O)c2ccc3nc(C)c(N(C)Cc4ccc(NC(C)=O)cc4)n3c2)cc1,-11,x,x,i,-2,-12,4.5,5.4,x
O=C1CCC(/C=C/c2ccccc2)=NN1Cc1ccccc1Cl,x,0.69,2%,x,x,x,x,2.6,-14
COCC(=O)Nc1ccc2c(c1)[C@H]1C[C@H](CC(=O)NCc3cccc(F)c3)O[C@H](CO)[C@H]1O2,-0.5,x,x,i,-1,-2,-2.6,x,x
COc1ccc(Cc2nc3ccc(C(=O)NCc4cccc(C)n4)cc3o2)cc1OC,-1.8,x,-1%,i,6,3,2.1,0.5,x
O=C(C1=C(O)C(=O)N(Cc2ccco2)C1c1cccs1)c1cccs1 (stereo not drawn),4.5,0.71,16%,i,-15,-16,1.9,2.4,5
NS(=O)(=O)c1ccc(NC(=O)NC2CCCCC2)cc1,x,x,2%,x,x,x,x,-2.9,0
COc1cc(N)ccc1NC(=O)c1cc2ccccc2o1,-4.0,0.69,1%,i,11,17,2.3,-5.8,7
COc1ccc(C(=O)NCc2ccncc2)cc1OC,6.7,0.69,25%,i,11,12,-2.0,0.7,-10
NC(=O)c1ccc(F)cc1,6.6,0.68,1%,i,7,-14,0.8,2.2,-9
Cc1cccc(NC(=O)CCN2CC(C)CC(C)C2)c1 (stereo not drawn),-0.4,0.7,x,i,1,9,-7.4,-2.3,-3
COc1ccc(NC(=O)CSCC(=O)Nc2cccc3ncccc23)cc1,-0.4,0.68,-4%,x,12,9,4.8,-4.3,19
Cc1cccc(N=C/C(C(=O)C(F)(F)F)=C(\O)c2ccco2)c1,11,0.69,u,i,15,9,8.0,-2.2,x
COc1ccc(CC(=O)N/N=C(\C)CC(=O)Nc2ccc(N(C)C)cc2)cc1,3.5,x,x,x,-2,0,0.2,3.4,94*
CCOC(=O)c1cnc2c(Cl)c(Cl)ccc2c1N1CCN(C)CC1,x,0.7,2%,x,x,x,x,7.1,-13
CCc1c2ccccc2nn1-c1ccccc1C(=O)C(C)=O,2.7,0.69,x,i,-7,-23,8.4,-0.4,-7
CCNS(=O)(=O)c1ccc(NS(=O)(=O)c2cc(C)ccc2C)cc1,x,0.78,7%,x,x,x,x,2.8,-2
CCC(=O)N1CCN=C1SCc1c(F)cccc1Cl,-3.5,0.66,1%,i,-1,-2,-3.5,1.9,99*
CCn1c(SC)nnc1-c1ccc(S(=O)(=O)N2CCCCC2)cc1,x,0.72,-5%,x,x,x,x,4.2,-18
O=P(OC1CCCCC1)(OC1CCCCC1)C(Nc1ccccc1)c1cccnc1 (stereo not drawn),2.0,0.65,6%,i,-20,-30,9.3,-0.9,-27
CCCSc1nc(-c2ccccc2)cc(C(F)(F)F)c1C#N,-17,0.71,-3%,i,13,3,-6.3,-2.6,0
CCOc1ccccc1N1CCN(Cc2ccco2)CC1,3.7,0.67,0%,i,9,3,-4.3,0.0,33
COc1cccc(NC(=O)C2CCN(S(=O)(=O)c3ccc4c(c3)N(C(C)=O)CCO4)CC2)c1,0.8,0.61,x,i,-4,-3,-1.2,-3.9,-2
O=C(Nc1ccc(F)cc1)N1C[C@@H]2[C@H](c3ccccc31)[C@@H](CO)N2C(=O)c1ccncc1,-2.9,x,x,i,-1,5,-1.6,x,x
